High-throughput results (PubChem BioAssay)
PKD1 inh – blocks activity of human protein kinase D1 | PKD1 kinase fluorescence polarization assay | AID 797 | Q15139 | 200,000 tested, 0.056% active | inhibition, %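 (about 10 µM by stock and volumes)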;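 active = inhibition of 50% or more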;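 note: controls were vehicle for no effect and a reference inhibitor for full effect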
Insulin prom inh – TRM-6 insulin promoter activity inhibition; AID 1273; TRM-6 cells (human fetal islet line), insulin promoter-eGFP reporter, imaging; reporter expression induced with tamoxifen; 130,000 tested, 0.9% active; inhibition, % at 2 µM;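 active = inhibition above the mean plus 3 SD, with well images judged a real hit on visual review, cut at about 60% in these data, passing the limit was not always enough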
HSV replic up – increases HSV replication in cells. HSV replication augmentation in cells, fold increase. maximum fold increase. 220,000 tested, 0.005% active. AID 1956;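 active = peak rise of 1.5-fold or more in the series; tested in PC3 cells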;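 note: first round at 10 µM; read as green reporter fluorescence; hits show the peak of a series up to 25 µM; 1 = signal of infected wells without compound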
RGS16-Gao – modulates binding between human RGS16 and Galphao. AID 1441. bead-based flow cytometry RGS16-Galphao binding, fluorescence; actives lie on both sides. 220,000 tested, 0.38% active. O15492+P09471. binding response (% of control), % at 10 µM;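 active = below 25% or above 175%, edge rows of some plates excepted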;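 note: Galphao activated by GDP with aluminum fluoride before binding; 100% = wells without compound and 0% = beads without RGS; some results beyond the cut were filed as inactive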
Target sequence (O15492 whole entry, looked up): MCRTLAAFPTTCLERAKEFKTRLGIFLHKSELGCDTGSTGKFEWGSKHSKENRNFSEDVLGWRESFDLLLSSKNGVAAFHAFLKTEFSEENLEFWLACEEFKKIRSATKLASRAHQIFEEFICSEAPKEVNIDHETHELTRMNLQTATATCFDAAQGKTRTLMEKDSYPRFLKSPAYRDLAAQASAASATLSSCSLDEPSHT
Target sequence (P09471 whole entry, looked up): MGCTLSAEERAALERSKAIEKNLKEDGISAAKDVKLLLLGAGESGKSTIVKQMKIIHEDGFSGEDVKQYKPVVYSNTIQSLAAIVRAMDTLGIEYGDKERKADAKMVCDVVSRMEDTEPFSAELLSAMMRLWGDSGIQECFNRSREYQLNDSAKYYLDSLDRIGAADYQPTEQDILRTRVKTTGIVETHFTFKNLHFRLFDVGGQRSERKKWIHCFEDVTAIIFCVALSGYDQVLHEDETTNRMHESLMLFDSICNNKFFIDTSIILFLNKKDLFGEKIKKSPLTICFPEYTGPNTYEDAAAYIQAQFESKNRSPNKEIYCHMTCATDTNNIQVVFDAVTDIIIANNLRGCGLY
GALR2 agonist – agonists of human galanin receptor 2 (GALR2) | 140,000 tested, 0.48% active | O43603 | GALR2-expressing cells, agonist activation read-out | activation, %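 (tested at 5 µM)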 | AID 803;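 active = above mean plus 3 SD of all compounds, about 5% in these data, not always enough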;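 note: 0% = vehicle buffer wells and 100% = reference agonist at full effect; tested in CHO reporter cells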
Target sequence (O43603 whole entry, looked up): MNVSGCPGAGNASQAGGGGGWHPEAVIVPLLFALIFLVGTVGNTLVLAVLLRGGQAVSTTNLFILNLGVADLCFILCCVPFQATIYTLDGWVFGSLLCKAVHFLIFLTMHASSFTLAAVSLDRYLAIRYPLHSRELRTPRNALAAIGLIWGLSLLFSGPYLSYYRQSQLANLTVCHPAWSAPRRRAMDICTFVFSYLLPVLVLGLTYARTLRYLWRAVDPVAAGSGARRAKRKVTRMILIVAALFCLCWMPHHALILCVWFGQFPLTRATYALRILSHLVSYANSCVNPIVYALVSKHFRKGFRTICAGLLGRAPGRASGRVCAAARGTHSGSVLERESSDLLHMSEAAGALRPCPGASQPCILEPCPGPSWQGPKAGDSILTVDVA
Insulin prom inh cell count – recorded beside Insulin prom inh, whose call it bears; normalized cell count, %; measured here: cell count, toxicity; reference of the scale not given here;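 cells exposed to compound for 48 h; stained nuclei by imaging scaled within each plate; lower means fewer cells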
HSV replic up primary fold – second read-out of HSV replic up, no call of its own (marks repeat the call); fold increase; compound at 10 µM; measured here: primary screen fold increase 10 uM; tested in PC3 cells;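 GFP signal in the first replicate; 1 = infected wells without compound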
An asterisk follows results filed as active; i = inactive; . = not tested or not shown.

SMILES	PKD1 inh	Insulin prom inh	Insulin prom inh cell count	HSV replic up	HSV replic up primary fold	RGS16-Gao	GALR2 agonist
Cc1ccc(N2C(=O)C3C(C2=O)N2C(c4cccs4)C4C(=O)N(c5ccc(C)cc5)C(=O)C4N2C3c2cccs2)cc1 (configuration not stated)	-10	.	.	i	1.1	107	0.4
COc1cc2cc(C(c3nnnn3C(C)(C)C)N3CCc4ccccc4C3)c(=O)[nH]c2cc1OC (configuration not stated)	2	.	.	i	0.9	95	0.0
COc1ccc(OC)c(NC(=O)Cn2cc(C=O)c3ccccc32)c1	0	.	.	i	0.94	103	.
Cn1cnc([N+](=O)[O-])c1Sc1ncn[nH]1	.	.	.	i	0.77	117	.
COc1ccc(C(=O)N/N=C/c2cc(Br)ccc2O)cc1OC	.	.	.	i	0.65	85	.
CCOc1ccc(N2Cc3ncccc3C2=O)cc1	4	29	141	i	0.95	92	-3.4
COc1ccc(NC(=O)CN2CCC(Cc3ccccc3)CC2)cc1S(=O)(=O)N1CCOCC1	-10	.	.	i	1	97	0.2
Cc1ccc(-n2nnnc2SCC(=O)Nc2sc(C)c(C)c2C#N)cc1C	-13	48	104	i	0.7	111	-1.2
CC(=O)Nn1cnc2c(c1=O)C1(CCCCC1)Cc1ccccc1-2	-3	-29	80	i	1.1	98	-1.2
CC1CC1C(=O)OCC(=O)Nc1ccc(N=Nc2ccccc2)cc1 (configuration not stated)	-1	-6	93	i	0.9	105	-0.3
O=C(Cc1ccccc1Cl)NNC(=O)Nc1ccccc1	-5	-17	78	i	0.89	108	-0.4
c1ccc(-c2noc(C34CC5CC(CC(C5)C3)C4)n2)cc1	-1	-17	95	i	0.99	109	-1.3
O=c1[nH]c2ccc(S(=O)(=O)N3CCN(c4ccccc4F)CC3)cc2s1	8	.	.	i	0.91	83	-1.2
COc1ccc(NC(=O)c2ccc(NC(=O)COC(=O)CC(NC(=O)c3ccccc3Cl)c3ccccc3)cc2)cc1 (configuration not stated)	-27	-11	136	i	0.88	98	-0.7
Cc1c(Cl)cccc1NC(=O)CCN1CCCC(C)C1 (configuration not stated)	1	-4	89	i	0.8	92	-2.6
COc1ccc(NS(=O)(=O)c2cc(NC(=O)c3cccc(OCc4c(C)noc4C)c3)ccc2OC)cc1	-10	0	106	i	0.83	103	-0.6
O=C(c1ccccc1)c1ccncc1	3	53	71	i	0.95	112	-1.3
S=C(NCc1ccccc1Cl)Nc1ccccc1Cl	-4	-12	82	i	0.95	105	.
CC(=O)Nc1ccccc1C(=O)C(=O)Nc1ccc(F)cc1	-2	-4	121	i	1	105	0.6
CCn1c(SCC(=O)Nc2nc(C)cs2)nnc1-c1ccco1	0	66	122	i	0.93	90	-1.1

For reference, some entries already given.
SMILES	PKD1 inh	Insulin prom inh	Insulin prom inh cell count	HSV replic up	HSV replic up primary fold	RGS16-Gao	GALR2 agonist
Cc1ccc(N2C(=O)C3C(C2=O)N2C(c4cccs4)C4C(=O)N(c5ccc(C)cc5)C(=O)C4N2C3c2cccs2)cc1 (configuration not stated)	-10	.	.	i	1.1	107	0.4
COc1cc2cc(C(c3nnnn3C(C)(C)C)N3CCc4ccccc4C3)c(=O)[nH]c2cc1OC (configuration not stated)	2	.	.	i	0.9	95	0.0
COc1ccc(OC)c(NC(=O)Cn2cc(C=O)c3ccccc32)c1	0	.	.	i	0.94	103	.

(listing goes on)
SMILES	PKD1 inh	Insulin prom inh	Insulin prom inh cell count	HSV replic up	HSV replic up primary fold	RGS16-Gao	GALR2 agonist
COc1ccc(NCCNc2ccc(OC)cc2)cc1	7	.	.	i	1	102	-1.3
Cc1ccc(NC(=O)c2cccc(NC(=O)/C=C/c3ccco3)c2)cc1C	7	.	.	i	1.2	100	-2.0
Cc1ccc(S(=O)(=O)N(C)C)cc1NC(=O)COC(=O)COc1ccccc1[N+](=O)[O-]	-8	.	.	i	0.93	104	.
S=C(NCCc1ccccc1)NN=C1CCCCCC1	-1	.	.	i	1	110	.
COc1cc(C(C(=O)NC(C)(C)C)N(C(=O)CNC(=O)c2cccs2)c2ccccc2)cc(OC)c1OC (configuration not stated)	-9	-14	107	i	1	101	-0.1
O=C(c1ccco1)N1CCN(c2ccc(Cl)cc2)CC1	0	0	120	i	0.93	100	-1.2
CCCCCCc1nnc(NC(=O)OCC)s1	-15	.	.	i	0.75	104	-2.2
Cc1ccc(N(O)C(=O)OCCNC(=O)Nc2ccccc2)cc1	-14	.	.	i	0.97	99	-1.3
Cc1nnc(SCc2cc(=O)oc3cc(O)ccc23)n1Cc1ccccc1	-10	-3	96	i	0.94	104	-0.6
COc1ccc(N(C)S(=O)(=O)c2ccc(C)cc2)c([N+](=O)[O-])c1	6	.	.	i	0.96	104	.
CCN(CC)CCN1C2=C(C(=O)CC(C)(C)C2)C(c2cccc(F)c2)C2=C1CC(C)(C)CC2=O	2	-140	103	i	0.91	103	.
NC(=O)C[C@@H]1NC(=O)CNC(=O)c2cc([N+](=O)[O-])cc(I)c2NCCC(C(N)=O)NC1=O (some centres not stated)	-12	9	101	i	1	61	-1.6
NC(=O)c1ccccc1N/C=C/C(=O)c1ccco1	-11	14	106	i	1.1	74	-1.5
COC(=O)c1c(NC(=O)c2nc3ccccc3s2)sc2c1CCN(C(C)=O)C2	-7	.	.	i	0.96	103	-1.5
Cc1nnc(NN)n(N)c1=O	.	.	.	i	0.92	100	.
CC(C)CN1CCN(Cc2cccn2-c2cccnc2)CC1CCO (configuration not stated)	-8	-27	109	i	0.96	108	.
COc1ccc(Cl)cc1NC(=O)N1CCN(c2ccccc2OC)CC1	.	.	.	i	0.9	90	.
Cn1c(SCC(=O)Nc2ccccc2)nnc1C(F)(F)F	-9	-43	157	.	.	96	.
CCOc1ccc2c(c1)sc(N)[n+]2Cc1cc(C)cc2cccnc12	-1	.	.	i	0.94	117	0.3
CC(=O)NCC(=O)NNC1CC(=O)N(c2cccc(Cl)c2)C1=O (configuration not stated)	.	.	.	i	0.92	102	.
N#CC1=C(N)C(C#N)(C#N)C(c2ccc[nH]2)C2CCCC=C12 (configuration not stated)	-5	-58	40	i	1.2	98	0.2
C#CCOCCOCCOCCNc1nc(N2CCN(C(=O)C([C@@H](C)CC)n3cc(C(N)CC(C)C)nn3)CC2)nc(N2CCN(C(=O)[C@H](CCC(=O)O)n3cc(C(N)[C@H](C)CC)nn3)CC2)n1 (some centres not stated)	-1	.	.	i	0.86	95	.
Cc1cccc(OCCCC(=O)NCC(=O)Nc2cccc(C)c2C)c1	-4	-36	106	i	1	114	.
C/C(N)=C(/C#N)C(=O)CSc1nnc(Nc2ccccc2)s1	0	-45	109	i	0.84	104	.
CCCCn1c(=NC(=O)c2ccco2)c(C(=O)OCC)cc2c(=O)n3cccc(C)c3nc21	.	.	.	i	0.96	79	.
OCC1(Cc2ccccc2)CCCN(Cc2cnn(-c3ccccc3)c2)C1 (configuration not stated)	-1	-6	151	i	0.88	100	.
CC(C)N(C(=O)c1ccc(C(=O)Nc2ccc([N+](=O)[O-])cc2)cc1)C(C)C	6	12	50	i	1.2	94	.
N#C/C(=C\N1CCCCC1)S(=O)(=O)c1ccc(Cl)cc1	.	.	.	i	1	110	.
NNC(=S)Nc1c(Br)cc(F)cc1Br	.	.	.	i	1.1	97	.
COc1ccc(/C=C2\SC(=S)N(CC(=O)OCC(=O)Nc3ccc([N+](=O)[O-])cc3OC)C2=O)cc1	5	6	146	i	0.93	101	.
COc1cc(/C=N/n2nnnc2Nc2ccccc2)cc(OC)c1OC	-5	36	95	i	0.84	102	-0.5
O=C(N/N=C/c1ccc(OCC(=O)N2CCCCC2)cc1)c1ccccc1	-10	.	.	i	0.74	97	-2.0
O=C(O)/C=C/C(=O)Nc1ccccc1-c1ccccc1NC(=O)/C=C/C(=O)O	0	.	.	i	1	92	0.4
COc1ccc(Nc2nnc(SCC3CCCCO3)s2)cc1 (configuration not stated)	1	.	.	i	1	108	.
COc1ccc(CC(=O)NCC2(c3ccc(OC)c(OC)c3)CCOCC2)cc1	-5	28	170	.	.	103	-2.2
Cc1n[nH]c(C)c1S(=O)(=O)N1CCN(c2ccccn2)CC1	-1	31	88	i	0.95	99	-0.8
O=S(=O)(c1ccc(Cl)cc1)N1CCN(S(=O)(=O)N2CCCCCC2)CC1	3	.	.	i	0.88	103	.
O=C(N1CCOCC1)N1CCC(c2nc(-c3ccc(S(=O)(=O)N4CCOCC4)cc3)no2)CC1	-8	7	110	i	0.99	94	-0.9
Cc1ccc(C(=O)Nc2ncc(Cc3ccc(F)cc3)s2)o1	6	.	.	.	.	102	0.2
O=C(Nc1ccc(N2CCOCC2)cc1)c1ccc(-c2ccccc2[N+](=O)[O-])o1	-3	29	129	i	1.2	102	.

Compounds listed so far that contain a cyano group, in the order listed:
SMILES	PKD1 inh	Insulin prom inh	Insulin prom inh cell count	HSV replic up	HSV replic up primary fold	RGS16-Gao	GALR2 agonist
Cc1ccc(-n2nnnc2SCC(=O)Nc2sc(C)c(C)c2C#N)cc1C	-13	48	104	i	0.7	111	-1.2
N#CC1=C(N)C(C#N)(C#N)C(c2ccc[nH]2)C2CCCC=C12 (configuration not stated)	-5	-58	40	i	1.2	98	0.2
C/C(N)=C(/C#N)C(=O)CSc1nnc(Nc2ccccc2)s1	0	-45	109	i	0.84	104	.
N#C/C(=C\N1CCCCC1)S(=O)(=O)c1ccc(Cl)cc1	.	.	.	i	1	110	.

The results go on:
SMILES	PKD1 inh	Insulin prom inh	Insulin prom inh cell count	HSV replic up	HSV replic up primary fold	RGS16-Gao	GALR2 agonist
Cc1nn(Cc2c(F)c(F)c(F)c(F)c2F)c(C)c1NC(=O)c1cccc(COc2ccccc2Cl)c1	-12	19	146	i	0.93	102	-4.6
O=C(OC1CCOC1=O)c1cc(-c2ccccc2)nc2ccccc12 (configuration not stated)	-2	8	110	i	0.86	104	0.2
CC(C)(C)Nc1c(N)c(=O)oc2ccccc12	3	39	69	i	1	101	-3.1
COc1cccc(C(=O)/C=C/c2ccc(OCC#N)c(OC)c2)c1	-12	43	136	i	0.53	103	0.5
CC(=O)n1cc([C@H]2C=C(C(=O)N3CCN(Cc4ccccc4)CC3)O[C@@H](OCc3ccc(CO)cc3)C2)c2ccccc21	-3	.	.	i	0.75	98	.
CN(C)S(=O)(=O)c1ccc(Cl)c(NC(=O)COc2ccccc2[N+](=O)[O-])c1	-22	-18	105	i	1	55	0.4
CCN(CC)S(=O)(=O)c1ccc(N2CCCC2)c(NS(=O)(=O)c2ccc(F)cc2)c1	-6	-3	91	i	1.1	101	-0.5
O=C(Cc1ccccc1)Nc1ccc(C(=O)NCC2COc3ccccc3O2)cc1 (configuration not stated)	2	56	64	i	0.73	100	-1.6
Cc1ccc(-n2c(SCC(=O)Nc3cccc(S(=O)(=O)NC4=NCCCCC4)c3)nc3ccccc3c2=O)cc1C	2	.	.	i	0.9	95	0.3

Of the compounds above, these have an NH in an aromatic ring:
SMILES	PKD1 inh	Insulin prom inh	Insulin prom inh cell count	HSV replic up	HSV replic up primary fold	RGS16-Gao	GALR2 agonist
COc1cc2cc(C(c3nnnn3C(C)(C)C)N3CCc4ccccc4C3)c(=O)[nH]c2cc1OC (configuration not stated)	2	.	.	i	0.9	95	0.0
Cn1cnc([N+](=O)[O-])c1Sc1ncn[nH]1	.	.	.	i	0.77	117	.
O=c1[nH]c2ccc(S(=O)(=O)N3CCN(c4ccccc4F)CC3)cc2s1	8	.	.	i	0.91	83	-1.2
N#CC1=C(N)C(C#N)(C#N)C(c2ccc[nH]2)C2CCCC=C12 (configuration not stated)	-5	-58	40	i	1.2	98	0.2
Cc1n[nH]c(C)c1S(=O)(=O)N1CCN(c2ccccn2)CC1	-1	31	88	i	0.95	99	-0.8

Pulled by compound from the list above:
SMILES	PKD1 inh	Insulin prom inh	Insulin prom inh cell count	HSV replic up	HSV replic up primary fold	RGS16-Gao	GALR2 agonist
N#C/C(=C\N1CCCCC1)S(=O)(=O)c1ccc(Cl)cc1	.	.	.	i	1	110	.
O=S(=O)(c1ccc(Cl)cc1)N1CCN(S(=O)(=O)N2CCCCCC2)CC1	3	.	.	i	0.88	103	.

Not a hit list; any-hit rate near 1.3%.
